Cruzain inh noDet: qHTS Assay for Promiscuous and Specific Inhibitors of Cruzain (without detergent); Cruzipain (Trypanosoma cruzi), P25779; purified cruzain, Z-FR-AMC fluorescence, no detergent; Potency, µM, for the others: max response, negative = inhibition, most hits filed as inhibitors; actives 2.3% (n = 200,000); AID 1476, 2009; active means well fitted curve in the direction sought with a large enough effect; inconclusive means small, poorly fitted or top-dose-only effect, or another doubt; inactive means no such curve, though single readings can be large; an effect the other way counts as inactive or inconclusive;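 further: plate controls were enzyme without inhibitor for no effect and buffer without enzyme for full effect; nearly all actives have a fitted effect of over 40% in size; top concentration of the series not given in the record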
Target sequence (P25779 123-467 limits assumed): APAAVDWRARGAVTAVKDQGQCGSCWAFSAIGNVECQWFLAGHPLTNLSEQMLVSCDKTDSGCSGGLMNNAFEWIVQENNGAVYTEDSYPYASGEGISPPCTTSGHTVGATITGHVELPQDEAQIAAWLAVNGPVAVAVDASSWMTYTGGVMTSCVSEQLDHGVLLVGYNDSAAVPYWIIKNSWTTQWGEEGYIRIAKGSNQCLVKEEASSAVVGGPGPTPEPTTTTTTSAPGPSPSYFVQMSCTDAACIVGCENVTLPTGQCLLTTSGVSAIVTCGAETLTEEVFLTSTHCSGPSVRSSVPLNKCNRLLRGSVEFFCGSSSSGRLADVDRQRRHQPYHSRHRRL
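Detergent-free condition (0.00005% Triton X-100) in acetate buffer pH 5.5 with DTT. 1.5 nM enzyme and compound were pre-mixed 15 min, then 2 uM Z-FR-AMC substrate added; reaction progress from fluorescence change between first and third reads (60 s).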
NS1 function inh: qHTS Assay for Inhibitors of Influenza NS1 Protein Function; actives 0.4% (n = 270,000); S. cerevisiae slowed by influenza A NS1, growth recovery by OD600; Potency, µM (top dose mostly 46.1 µM), inactives show top-dose activity, positive = more growth; further: actives are rising curves; nearly all actives have a fitted effect of over 50% in size
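In this qHTS, NS1 from influenza A is expressed in budding yeast, where it slows growth. Cells are switched from glucose to 2% galactose medium (pH 6.0, -URA), treated with compound, and growth recovery is read at OD600.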
Cruzain Triton: qHTS Assay for Promiscuous and Specific Inhibitors of Cruzain (with detergent); Cruzipain (Trypanosoma cruzi), P25779; purified cruzain, Z-FR-AMC fluorescence, 0.01% Triton; Potency, µM, for the others: max response, negative = inhibition, hits mostly inhibitors; actives 0.43% (n = 200,000); active means well fitted curve in the direction sought with a large enough effect; inconclusive means small, poorly fitted or top-dose-only effect, or another doubt; inactive means no such curve, though single readings can be large; an effect the other way counts as inactive or inconclusive;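 further: plate controls were neutral wells for no effect and buffer without enzyme for full effect; nearly all actives have a fitted effect of over 40% in size; top concentration of the series not given in the record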
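Enzyme 1.5 nM, Z-FR-AMC 2 uM, NaOAc 100 mM pH 5.5, DTT 5 mM, Triton X-100 0.01%; 15 min RT compound preincubation; kinetic ex360/em450, 60 s delta.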
SARS PLP yeast: qHTS of Yeast-based Assay for SARS-CoV PLP; Potency, µM (top dose mostly 32.9 µM), without a hit: at the highest dose activity, positive = growth rescue; actives 0.19% (n = 330,000); S. cerevisiae expressing SARS-CoV PLpro, growth rescue; control for the full effect not named in the record; further: 0% is about no effect; nearly all actives have a fitted effect of over 55% in size; growth read by luminescence after 48 h
Marburg entry inh: qHTS for inhibitors of binding or entry into cells for Marburg Virus; Potency, µM (series often up to 37.8 µM), for inactives: at the top dose activity change, negative = inhibition, most hits filed as inhibitors; actives 1.8% (n = 300,000); AID 540276, 2011; Marburg virus pseudotyped entry inhibition, cell reporter; control for the full effect not named in the record; about a third of the inactives were read at about 46 µM; active = well fitted inhibition curve with a large enough effect; inconclusive = small, poorly fitted or top-dose-only effect, or effect the other way; inactive = flat fitted curve, though single readings scatter; tested in HEK293 cells; about a fifth of its hits are not listed in these tables; further: on the % scale 0 is the no-effect control and ±100 the full control effect; luciferase read-out
Lassa entry inh: qHTS for Inhibitors of binding or entry into cells for Lassa Virus | actives 1.2% (n = 300,000) | Potency, µM (top dose mostly 37.9 µM), for the others: top-dose activity change, negative = inhibition, hits mostly inhibitors | Lassa virus pseudotype entry inhibition, cell reporter; control for the full effect not named in the record | AID 540256, 2011; active means well fitted inhibition curve with a large enough effect; inconclusive means small, poorly fitted or top-dose-only effect, or effect the other way; inactive means flat fitted curve, though single readings scatter; tested in HEK293 cells; further: on the % scale 0 is the no-effect control and ±100 the full control effect; nearly all actives have a fitted effect of over 50% in size; luciferase read-out
RE007 growth inh: qHTS Assay for Inhibitors of the HIV-1 protein Vpr | S. pombe RE007 Vpr strain, BacTiter-Glo ATP luminescence, 24 h; control for the full effect not named in the record | Potency, µM (doses to about 92.2 µM), without a hit: top-dose activity change, negative = less growth | actives 0.21% (n = 360,000) | AID 651644, 2012; active = well fitted falling curve with a large enough effect; inconclusive = small, poorly fitted or top-dose-only effect; inactive = no such curve, though single readings can be large or run the other way;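 further: on the % scale 0 is the no-effect control and ±100 the full control effect; nearly all actives have a fitted effect of over 50% in size; the assay follows cell death caused by Vpr and the record does not say whether a fall means rescue or toxicity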
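Fission yeast strain RE007, carrying one chromosomally integrated HIV-1 vpr copy, was seeded at OD 0.01 in PMG+AL medium with 23 nL pinned compound. After 24 h at 30 °C and 99% humidity, viability was read by BacTiter-Glo luminescence.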
2A StopGo: High Throughput Screening for Foot and Mouth Disease Virus Antivirals; human cells with a luciferase reporter of 2A StopGo recoding; control for the full effect not named in the record; Potency, µM (series often up to 57.9 µM), for the others: top-dose signal change, negative = less light; actives 1.2% (n = 410,000); active = well fitted falling curve with a large enough effect; inconclusive = small, poorly fitted or top-dose-only effect; inactive = no such curve, though single readings can be large or run the other way; tested in HEK293T cells; further: on the % scale 0 is the no-effect control and ±100 the full control effect; nearly all actives have a fitted effect of over 45% in size; luciferase light after 4 h
Active calls of the source: *; u = inconclusive; x = no result given; & = joins results of further samples; [ ] = another dose, or the depositor's remark. Unless noted, the call rests on the fitted dose curve; in most records, active means well fitted rising curve with a large enough effect; inconclusive means small, poorly fitted or top-dose-only effect; inactive means no such curve, though single readings can be large or run the other way. Potency means the concentration at half of the fitted maximal effect.

cpd	SMILES	2A StopGo	Cruzain Triton	Marburg entry inh	Cruzain inh noDet	NS1 function inh	Lassa entry inh	SARS PLP yeast	RE007 growth inh
1	Cc1ccc(Cl)cc1N(CC(=O)NC(C)c1ccccc1)S(C)(=O)=O (stereo unspecified)	10%	x	-27%[46.1 µM]	x	7%	-29%[46.1 µM]	-3%	-7%
2	CNC(=O)c1ccccc1-c1cn(C)c2ccccc2c1=O	6%	x	u	x	x	3%	-2%	-25%
3	CC(C)(C)[C@H]1C=C(C(=O)NC2CC2)O[C@@H](OCCCCO)C1	-11%	x	x	x	7%	x	0%	7%
4	CCOc1ccccc1Nc1nc(-c2sc(NC(=O)c3ccco3)nc2C)cs1	-6%	-3.3%	x	u	21%	x	-5%	-3%
5	Cc1ccc(C(=O)N/C(=C\c2ccco2)C(=O)NC2CCS(=O)(=O)C2)cc1 (stereo unspecified)	-14%	x	-12%[46.1 µM]	x	3%	21%[46.1 µM]	-1%	-3%
6	CCN(C(=O)CSc1ncnc2sc(C)c(C)c12)C1CCS(=O)(=O)C1 (stereo unspecified)	u	x	-1%[46.1 µM]	x	-6%	u	2%	1%
7	N#Cc1cc2c(=O)n3ccccc3nc2n(-c2nnc(SCc3ccc(F)cc3)s2)c1=O	-13%	-0.8%	u	-9%	x	x	x	x
8	Cc1cccc(C(=O)Nc2nc(C)c(C(=O)Nc3ccc4c(c3)CCC4)s2)c1	x	0.8%	u	u	-1%	u	-6%	-12%
9	CC(C)(C)N/C=C(\C#N)S(=O)(=O)c1ccc(Br)cc1	-12%	x	1%	x	3%	3%	-1%	5%
10	CC(C)=C1C2C=CC1C(C(=O)Nc1cccc(C)c1)C2C(=O)O (stereo unspecified)	3%	-2.1%	-25%	10%	-24%	13%	-2%	u
11	Cc1ccc(NC(=O)c2nc(S(C)(=O)=O)ncc2N(Cc2ccco2)Cc2cccs2)cc1C	-18%	-3.3%	u	u	x	u	x	x
12	Cc1ccccc1-c1nc(CN2CCC(C(=O)O)CC2)c(C)o1	-9%	3.8%	-1%	-5%	-3%	x	4%	8%
13	CC(C)C(c1nnnn1Cc1ccccc1)N1CCN(Cc2ccco2)CC1 (stereo unspecified)	0%	-0.2%	3%[46.1 µM]	-13%	3%	-2%	3%	0%
14	COc1cc(-c2nnc(COC(=O)c3nn(CC(C)C)c(=O)c4ccccc34)o2)cc(OC)c1OC	8%	x	28%	x	x	-5%[46.1 µM]	-1%	3%
15	COc1ccccc1C(=O)NC(=O)COC(=O)c1cc[n+]([O-])cc1	-24%	x	u	x	x	u	13%	-8%
16	CCOC(=O)Cc1cnc(NC(=O)NC(C(=O)OCC)(c2ccccc2)C(F)(F)F)s1 (stereo unspecified)	12%	-5.9%	u	7%	10%	9%	0%	1%
17	CCOC(=O)c1[nH]c(C)c(CCC(=O)Nc2cccc(SC)c2)c1C	-15%	-6.6%	x	-4%	x	-7%[46.1 µM]	x	x
18	Cn1c(C(=O)NC2CC2)cc2c(=O)n(C)c3ccccc3c21	-4%	-0.8%	x	-5%	-12%	x	5%	-9%
19	CCN(CC)S(=O)(=O)c1ccc(C)c(NS(=O)(=O)c2cc(/C=C/C(=O)O)cc(OC)c2OC)c1	11%	x	2%[46.1 µM]	x	x	x	4%	-15%
20	CCOc1ccc(NC(=O)C(C)Sc2nnnn2C)cc1 (stereo unspecified)	x	1.5%	7%	3%	0%	12%	4%	0%
21	Cc1[nH]c2ccccc2c1/C=C(\C#N)C(=O)NCc1ccccc1	-1%	-9.2%	12%&-4%	12%	11%	u	-4%	4%
22	CCOC(=O)c1ccc(NC(=O)CCOc2ccc(OC)cc2)cc1	-2%	-6.6%	-6%	16%	-46%	-24%	-6%	-9%[3.69 µM]
23	C=CCc1cccc2cc(C(=O)Nc3cccc(C(=O)O)c3)c(=O)oc12	16%	x	-1%	x	u	x	1%	20%
24	O=C(CSCc1ccc(F)cc1)N1CCc2c([nH]c3ccccc23)C1c1ccc(F)cc1 (stereo unspecified)	-27%	3.7%	x	u	x	u	x	x
25	O=C(CNC(=O)c1ccco1)OCC(=O)c1ccccc1Cl	12%	x	x	x	-1%	x	0%	1%
26	O=C(NC1CCSc2ccccc21)c1cc(S(=O)(=O)N2CCOCC2)ccc1Cl (stereo unspecified)	13%	x	-19%	x	x	9%	2%	-4%
27	O=C(Cn1nnc2ccccc21)c1ccc([N+](=O)[O-])cc1	6%	x	x	x	12%	x	-1%	12%
28	O=C(Cc1cccs1)N1CCN(c2ccccn2)CC1	u	1.5%	17%	0%	-18%	0%	-2%	-9%
29	COc1cccc(CNC(=O)C2CCCN(S(=O)(=O)c3c(C)noc3/C=C/N(C)C)C2)c1 (stereo unspecified)	-2%	x	x	x	u	x	3%	-14%
30	Cc1ccc(CCNC(=O)CCc2nc3ccccc3[nH]2)cc1	-11%	-1.9%	5%	3%	1%	2%	24%	-4%

By substructure, the entries above with an aryl thioether with sulfur outside any ring
cpd	SMILES	2A StopGo	Cruzain Triton	Marburg entry inh	Cruzain inh noDet	NS1 function inh	Lassa entry inh	SARS PLP yeast	RE007 growth inh
6	CCN(C(=O)CSc1ncnc2sc(C)c(C)c12)C1CCS(=O)(=O)C1 (stereo unspecified)	u	x	-1%[46.1 µM]	x	-6%	u	2%	1%
7	N#Cc1cc2c(=O)n3ccccc3nc2n(-c2nnc(SCc3ccc(F)cc3)s2)c1=O	-13%	-0.8%	u	-9%	x	x	x	x
17	CCOC(=O)c1[nH]c(C)c(CCC(=O)Nc2cccc(SC)c2)c1C	-15%	-6.6%	x	-4%	x	-7%[46.1 µM]	x	x
20	CCOc1ccc(NC(=O)C(C)Sc2nnnn2C)cc1 (stereo unspecified)	x	1.5%	7%	3%	0%	12%	4%	0%

(listing goes on)
cpd	SMILES	2A StopGo	Cruzain Triton	Marburg entry inh	Cruzain inh noDet	NS1 function inh	Lassa entry inh	SARS PLP yeast	RE007 growth inh
31	CCN(C(=O)CN1CCCCCC1)c1c(N)n(Cc2ccccc2)c(=O)[nH]c1=O	-11%	x	9%	x	x	13%[46.1 µM]	-1%	9%
32	O=C(Nc1ccccc1N1CCN(C(=O)c2ccccc2)CC1)c1ccc(Cl)cc1	-23%	x	u	x	x	u	-2%	-10%
33	C[C@H](NC(=O)Cc1ccccc1)C(=O)N1CCC2(CC1)NCCc1[nH]cnc12	-12%	x	-8%[46.1 µM]	x	-1%	21%[46.1 µM]	1%	14%
34	CN(CC(=O)NCC1CCCCC1)CC(=O)Nc1ccccc1Br	-15%	x	-11%	x	x	8%	2%	-10%
35	COc1ccc(OC)c(NC(=O)CC2C(=O)NCCN2C(=O)c2ccccc2)c1 (stereo unspecified)	-6%	x	-6%[46.1 µM]	x	5%	4%	-1%	7%
36	O=[N+]([O-])c1cc(F)c2cccnc2c1O	-13%	x	x	x	-86%	x	-4%	u
37	Cc1cccc(C)c1NC(=O)CN(C)C(=O)[C@H](C)NC(=O)c1ccco1	-9%	x	13%	x	x	-9%	-3%	-3%
38	CCOc1cc(NC(=O)c2cccs2)c(OCC)cc1NC(=O)c1ccco1	5%	2.5%	-5%	7%	-6%	0%	6%	8%
39	CCc1ccc(C(=O)COC(=O)C(Cc2ccccc2)NC(=O)C2CCC(C)CC2)cc1 (stereo unspecified)	13%	7.5%	u	-15%	24%	u	-3%	14%
40	CC(=O)c1cccc(NC(=O)c2sc3nc4n(c(=O)c3c2C)CCCC4)c1	20%	x	u	x	8%	-5%[46.1 µM]	-14%	5%
41	CCOC(=O)CCCNC(=O)CN1C(=O)NC(CCc2ccccc2)C1=O (stereo unspecified)	-13%	1.8%	6%	18%	3%	4%	-1%	14%
42	CCOC(=O)N1CCN(CCC(=O)Nc2ccc(Br)cc2)CC1	u	3.7%	-8%	1%	-8%	-12%	11%	-8%
43	O=C(NC(Cc1c[nH]c2ccccc12)C(=O)Nc1ccc(F)cc1)c1cccs1 (stereo unspecified)	-17%	-7.0%	u	5%	0%	1.4µM*	-1%	x
44	CCN(CCS(=O)(=O)c1ccc(Cl)cc1)Cc1nc2ccccc2c(=O)[nH]1	-15%	x	-1%	x	x	9%	21%	-23%
45	CCOc1ccc(NC(=O)CCC(=O)NNC(=O)Nc2cccc(Cl)c2)cc1	-7%	x	x	x	2%	x	0%	1%
46	CCS(=O)(=O)N1CCC2(CC1)OC(=O)C(C)=C2C(=O)NCc1ccc(OC)c(OC)c1	-18%	-0.3%	x	-26%	x	-1%[46.1 µM]	x	x
47	Cc1ccc2nc(SCC(=O)Nc3cccnc3Cl)[nH]c2c1	-20%	x	-16%	x	x	-15%	-3%	6%
48	CCNC(=O)c1ccc2nc(Cc3ccccc3)oc2c1	40%[activator]	1.0%	x	-7%	x	12%[46.1 µM]	x	x
49	CCOc1ccccc1CNC(=O)C(C)n1nc(C)c2c(C)n(-c3ccccc3)nc2c1=O (stereo unspecified)	u	x	u	x	15%	-23%[46.1 µM]	-7%	-6%
50	Cc1ccccc1NC(=O)c1sc2nc3c(c(-c4ccco4)c2c1N)CCC3	-22%	-3.8%	0%	-27%	16%	-13%	-3%	4%
51	COc1nc(N)nc(N)c1NS(=O)(=O)c1ccc(C)cc1	-6%	x	13%[46.1 µM]	x	-4%	7%[46.1 µM]	-4%	1%

Random excerpt: two entries already listed.
cpd	SMILES	2A StopGo	Cruzain Triton	Marburg entry inh	Cruzain inh noDet	NS1 function inh	Lassa entry inh	SARS PLP yeast	RE007 growth inh
35	COc1ccc(OC)c(NC(=O)CC2C(=O)NCCN2C(=O)c2ccccc2)c1 (stereo unspecified)	-6%	x	-6%[46.1 µM]	x	5%	4%	-1%	7%
37	Cc1cccc(C)c1NC(=O)CN(C)C(=O)[C@H](C)NC(=O)c1ccco1	-9%	x	13%	x	x	-9%	-3%	-3%

Screening data (PubChem BioAssay)

Compounds as they come; 4.7% or so of the library scored in one or more.
